Screens deposited in PubChem by National Center for Advancing Translational Sciences (NCATS).
Six1-Eya2 blk: qHTS Assay for Inhibitors of the Six1/Eya2 Interaction; actives 0.56% (n = 360,000); activity change, % (test concentration not listed); Homeobox protein SIX1 (Homo sapiens) + Protein phosphatase EYA2 (Homo sapiens), …; AlphaScreen GST-Six1/His-Eya2 binding, biochemical; hits give low values; control for the full effect not named in the record; in the data active = activity change below about -65%; inconclusive = about -30% to -65%; inactive = above about -30%; note: % is set by controls: 0 for no effect and ±100 for the full control effect; compound concentration not given in the record
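Compounds are tested against tagged Six1 and Eya2 proteins bridged by glutathione donor and nickel acceptor beads; after a one-hour incubation at 37 °C without light, AlphaScreen emission is recorded.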
gsp antagonist: qHTS for Antagonists of gsp, the Etiologic Mutation Responsible for Fibrous Dysplasia/McCune-Albright Syndrome: qHTS; gsp-mutant cells, cAMP HTRF, 30 min; control for the full effect not named in the record; Potency, µM (top dose mostly 76.9 µM), for inactives: at the highest dose activity change, negative = inhibition, actives largely listed as inhibitors; actives 0.4% (n = 340,000); AID 624288, 2012; active = falling curve of any shape with a large fitted effect; inconclusive = falling curve, mostly with a smaller effect; inactive = flat or rising curve; cell line not stated here;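 note: intracellular cAMP measured with PDE inhibitor Ro 20-1724 present during compound exposure; potency is the fitted concentration of half-maximal effect; % is set by controls: 0 for no effect and ±100 for the full control effect; nearly all actives have a fitted effect of over 65% in size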
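HTRF cAMP read-out (cAMP-d2 plus anti-cAMP antibody-K in lysis buffer, 30 min RT). Before lysis, cells are exposed to compounds with […] for 30 min at 37C in DPBS containing Ca/Mg, BSA and Tween 20.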
gsp agonist: qHTS for Agonist of gsp, the Etiologic Mutation Responsible for Fibrous Dysplasia/McCune-Albright Syndrome: qHTS | AID 624287, 2012 | actives 0.13% (n = 340,000) | Potency, µM (top dose mostly 76.9 µM), without a hit: at the highest dose activation (cAMP increase), hits mostly activators | gsp mutant cells, cAMP HTRF, 30 min; control for the full effect not named in the record; active = well fitted activation curve with a large enough effect; inconclusive = small, poorly fitted or top-dose-only effect, or another doubt; inactive = no such curve, though single readings can be large or run the other way; cell line not stated here;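 note: phosphodiesterase inhibitor Ro 20-1724 added with compounds to block cAMP breakdown; potency is the fitted concentration of half-maximal effect; nearly all actives have a fitted effect of over 60% in size; about a fifth of the inactives were tested at one dose only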
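Cells in DMEM/10% FBS with G418 were pretreated with compounds in DMSO plus […] (300 uM stock) for 30 min at 37C. cAMP was measured by HTRF (cAMP-d2 plus anti-cAMP antibody-K) after 30 min at room temperature.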
D2 agonist: Beta-Arrestin HTS for Positive Allosteric Modulators of the Human D2 Dopamine Receptor: Agonists; activation, % (concentration not given with the values); DiscoveRx PathHunter D2 beta-arrestin, luminescence, 90 min; 100% = 57 uM dopamine signal; actives 0.084% (n = 360,000); in the data active = activation above about 40%; inconclusive = about 15% to 40%; inactive = below about 15%; note: compound concentration not given in the record; the text of the record calls up to 30% inactive
Target sequence (P14416 whole entry, looked up): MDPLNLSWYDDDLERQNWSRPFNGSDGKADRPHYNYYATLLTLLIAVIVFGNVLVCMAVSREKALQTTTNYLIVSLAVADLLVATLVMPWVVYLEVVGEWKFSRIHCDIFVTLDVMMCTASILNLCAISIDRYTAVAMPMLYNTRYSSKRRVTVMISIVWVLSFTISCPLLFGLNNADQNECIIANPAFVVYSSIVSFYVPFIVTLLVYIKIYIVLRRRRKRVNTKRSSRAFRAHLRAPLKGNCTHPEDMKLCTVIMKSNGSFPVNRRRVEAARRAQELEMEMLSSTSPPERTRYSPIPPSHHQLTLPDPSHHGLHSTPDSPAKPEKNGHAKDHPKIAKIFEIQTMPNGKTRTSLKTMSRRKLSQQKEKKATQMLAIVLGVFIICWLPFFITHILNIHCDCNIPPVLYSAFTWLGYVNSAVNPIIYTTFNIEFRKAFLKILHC
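Agonist mode: compounds alone added to overnight-plated D2 PathHunter cells for 90 min at 37 C, with 57 uM final dopamine (EC100) defining full response. Beta-arrestin recruitment detected by chemiluminescent reagent, read after 1 h at ambient temperature.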
CtBP-E1A inh: qHTS Assay for Inhibitors of the CtBP/E1A Interaction; CtBP / adenovirus E1A interaction (AlphaScreen); AlphaScreen GST-E1A/His-CtBP binding, 1536-well; hits give low values; control for the full effect not named in the record; activity change, % (no concentration beside the values); actives 0.49% (n = 340,000); AID 651724, 2012; in the data active means activity change below about -65%; inconclusive means about -30% to -65%; inactive means above about -30%; note: % is set by controls: 0 for no effect and ±100 for the full control effect; compound concentration not given in the record
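AlphaScreen with 125 nM GST-E1A and 125 nM His-CtBP (5X stocks) in Tris pH 8.0, 300 mM NaCl, BSA, Tween 20, TCEP. Compounds preincubated 2 h at 37 deg C, then glutathione donor/nickel acceptor beads added for 1 h at 37 deg C in dark.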
D2 PAM: Beta-Arrestin HTS for Positive Allosteric Modulators of the Human D2 Dopamine Receptor: Potentiators. D(2) dopamine receptor (Homo sapiens), P14416. DiscoveRx D2 beta-arrestin cells, luminescence, 90 min; 100% = 57 uM dopamine signal. potentiation, % (no concentration beside the values). actives 0.23% (n = 360,000). AID 624464, 2012; active = potentiation of 50% or more; inconclusive = 30% to 50%; inactive = 30% or less;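 note: compound concentration not given in the record; tested on top of an EC20 dose of dopamine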
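D2 cells co-treated with compound plus 50 nM dopamine (EC20) for 90 min at 37 deg C to detect potentiation. Beta-arrestin recruitment was read as enzyme-fragment luminescence after 1 h at ambient temperature. Full response was set by 57 uM dopamine.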
The depositor's hits bear a star; [ ] = another dose, or the depositor's remark.

CCOC(=O)C1CCCN(C(=O)c2c(-c3ccccc3)noc2C)CC1 (configuration not stated) was read as Six1-Eya2 blk 1, D2 agonist 7.5, CtBP-E1A inh 8 and D2 PAM 0.
For COc1ccc(NC(=O)C2Cc3c(-c4cccc(C(N)=O)c4)ccnc3O2)cc1OC (configuration not stated) the results were Six1-Eya2 blk -12, D2 agonist 1.3, CtBP-E1A inh -11 and D2 PAM -5.
COc1cccc(OCC(=O)Nc2cc(Cl)ccc2Oc2ccccc2)c1 was read as Six1-Eya2 blk 25, gsp antagonist -13%, gsp agonist -54%[inhibitor], D2 agonist -1.2, CtBP-E1A inh 31 and D2 PAM -2.
For CN(C)S(=O)(=O)c1cccc(NC(=O)c2cccc(S(=O)(=O)N3CCc4ccccc43)c2)c1 the results were Six1-Eya2 blk -1, gsp antagonist inconclusive, gsp agonist 14%, D2 agonist -2.4 and D2 PAM -8.
Screening O=C(Nc1nc(-c2ccccn2)cs1)c1cc2ccccc2o1 returned Six1-Eya2 blk -77*, gsp antagonist -21%, gsp agonist 0%, D2 agonist -3.7, CtBP-E1A inh -68* and D2 PAM 0.
Screening O=C(CNC(=O)c1ccccc1)OCc1cccc(Br)c1 returned Six1-Eya2 blk 0, gsp agonist -4%[15.4 µM], D2 agonist -0.4, CtBP-E1A inh 6 and D2 PAM -4.
CCNC(=S)Nc1ccc2cn[nH]c2c1 was read as Six1-Eya2 blk 1, gsp antagonist 6%, gsp agonist -9%[15.4 µM], D2 agonist -6.2, CtBP-E1A inh -14 and D2 PAM -6.
For CCCOc1cccc(C(=O)Nc2ccccc2C(=O)N2CCN(C)CC2)c1 the results were Six1-Eya2 blk 5, gsp antagonist -1%, gsp agonist -42%[inhibitor], D2 agonist 0.8, CtBP-E1A inh 1 and D2 PAM -15.
Screening COc1ccc(C(=O)NC(=S)NNC(=O)c2ccc(O)cc2)cc1[N+](=O)[O-] returned Six1-Eya2 blk -24, gsp antagonist -14%, gsp agonist -14%[15.4 µM], D2 agonist -1.9, CtBP-E1A inh inconclusive and D2 PAM -2.
O=C(NCCCC1CCCC1)C1CCC(=O)N(Cc2cccc(F)c2)C1 (configuration not stated) was read as Six1-Eya2 blk 5, gsp antagonist -3%, gsp agonist -23%, D2 agonist -0.9, CtBP-E1A inh 4 and D2 PAM 1.
O=C(COC(=O)c1ccccn1)Nc1ccccc1Cl was read as Six1-Eya2 blk -4, gsp antagonist -6%, gsp agonist 15%, D2 agonist 1.2, CtBP-E1A inh -5 and D2 PAM -21.
For Cc1nnc(SCc2nnc(-c3ccccc3Br)o2)s1 the results were Six1-Eya2 blk 0, gsp antagonist -2%, gsp agonist -10%[15.4 µM], D2 agonist 3.2, CtBP-E1A inh 0 and D2 PAM 5.
`CC(C)c1nc2oc3c(NCC4CCCO4)ncnc3c2c2c1COC(C)(C)C2` (configuration not stated) gave Six1-Eya2 blk 7, gsp antagonist 27%, gsp agonist 4%, D2 agonist -2.6, CtBP-E1A inh -17 and D2 PAM 15.
Screening CCCc1[nH]nc2c1C(c1ccc(OCCN3CCOCC3)c(OCC)c1)C(C#N)=C(N)O2 (configuration not stated) returned Six1-Eya2 blk -2, gsp antagonist -7%, gsp agonist -37%[inhibitor], D2 agonist 0.6, CtBP-E1A inh 5 and D2 PAM -8.
Screening COc1cc(/C=N/NC2=NS(=O)(=O)c3ccccc32)cc(OC)c1OC returned Six1-Eya2 blk 0, gsp antagonist -17%, gsp agonist -4%[15.4 µM], D2 agonist 1.3, CtBP-E1A inh 1 and D2 PAM 0.
`Cc1ccccc1NS(=O)(=O)CCCCC(Cl)(Cl)Cl` gave Six1-Eya2 blk 6, gsp antagonist -2%, gsp agonist -1%[15.4 µM], D2 agonist -3.3 and D2 PAM -2.
Cn1c(=O)c2c([nH]c(=O)n2C)n(Cc2ccccc2)c1=O was read as Six1-Eya2 blk 2, gsp antagonist 10%, gsp agonist 7%[15.4 µM], D2 agonist -1.1, CtBP-E1A inh 15 and D2 PAM -6.
Screening C=CCN(c1ccccc1)S(=O)(=O)c1cccc(C(=O)Nc2ncccc2O)c1 returned Six1-Eya2 blk -14, gsp antagonist 4%, gsp agonist -5%[15.4 µM], D2 agonist -0.3, CtBP-E1A inh -7 and D2 PAM 16.
`Cc1cc(NC(=O)c2cc([N+](=O)[O-])cc([N+](=O)[O-])c2)no1` gave Six1-Eya2 blk 0, gsp antagonist -21%, gsp agonist 8%, D2 agonist 12, CtBP-E1A inh 0 and D2 PAM 13.
CC(CN1CCCCC1)OC(=O)c1cc2ccccc2o1 (configuration not stated) was read as Six1-Eya2 blk 8, gsp antagonist 4%, gsp agonist -22%, D2 agonist -1.1, CtBP-E1A inh 4 and D2 PAM -32.
CCN(CC)c1nc(N)c2c(N)nc(OC)cc2c1C#N was read as Six1-Eya2 blk -14, gsp antagonist 11%, D2 agonist 0.4, CtBP-E1A inh inconclusive and D2 PAM -8.
For NS(=O)(=O)c1ccc(NC(=O)c2ccc(Cl)c(S(=O)(=O)NCc3ccco3)c2)cc1 the results were Six1-Eya2 blk -7, gsp antagonist 10%, gsp agonist 0%, D2 agonist -1.8, CtBP-E1A inh -7 and D2 PAM -1.
COc1ccc(S(=O)(=O)Nc2c(C)nc3nc[nH]n3c2=O)cc1 was read as Six1-Eya2 blk 1, gsp agonist 7%[15.4 µM], D2 agonist 1.5, CtBP-E1A inh -14 and D2 PAM -13.
Cc1ccc(S(=O)(=O)CC(C)N2CCOCC2)c(S(=O)(=O)CC(C)N2CCOCC2)c1 (configuration not stated) was read as Six1-Eya2 blk 2, gsp antagonist -1%, gsp agonist -39%[inhibitor], D2 agonist 0.9, CtBP-E1A inh 7 and D2 PAM 12.
Screening O=C(NCCc1ccccc1)c1cccc([N+](=O)[O-])c1 returned Six1-Eya2 blk -11, gsp antagonist 10%, gsp agonist 10%, D2 agonist -1.0, CtBP-E1A inh -6 and D2 PAM -25.
Screening CCOc1ccc(S(=O)(=O)N2CCCC(C(=O)NCc3ccccc3)C2)cc1 (configuration not stated) returned Six1-Eya2 blk 3, gsp antagonist 1%, gsp agonist -20%, D2 agonist 0.1, CtBP-E1A inh 9 and D2 PAM -15.
For COc1ccc(CNC(=O)COC(=O)c2ccc(Br)c(S(=O)(=O)N3CCOCC3)c2)cc1 the results were Six1-Eya2 blk -4, gsp antagonist -21%, gsp agonist -59%[inhibitor], D2 agonist 10 and D2 PAM 3.
Screening Cc1ccc(SCC(=O)OCC(=O)N(C)CC(=O)Nc2ccc(F)cc2)cc1C returned Six1-Eya2 blk 3, gsp antagonist 4%, gsp agonist -12%[15.4 µM], D2 agonist 0.4, CtBP-E1A inh 2 and D2 PAM 10.
Screening O=C(NCCNC(=O)c1ccc(Cl)cc1Cl)c1ccco1 returned Six1-Eya2 blk -5, gsp antagonist 4%, gsp agonist 29%, D2 agonist -4.2, CtBP-E1A inh -1 and D2 PAM -4.
Cc1ccc(C23CC4CC(CC(C(=O)NC(C)C)(C4)C2)C3)cc1 was read as Six1-Eya2 blk 3, gsp antagonist inconclusive, gsp agonist 2%[15.4 µM], D2 agonist -0.2, CtBP-E1A inh 6 and D2 PAM -10.

Overlap with the part before: two compounds, then new ones.
Screening O=C(NCCNC(=O)c1ccc(Cl)cc1Cl)c1ccco1 returned Six1-Eya2 blk -5, gsp antagonist 4%, gsp agonist 29%, D2 agonist -4.2, CtBP-E1A inh -1 and D2 PAM -4.
Cc1ccc(C23CC4CC(CC(C(=O)NC(C)C)(C4)C2)C3)cc1 was read as Six1-Eya2 blk 3, gsp antagonist inconclusive, gsp agonist 2%[15.4 µM], D2 agonist -0.2, CtBP-E1A inh 6 and D2 PAM -10.
`CC1CCCC(NC(=O)CCC(=O)N2CCOc3ccccc32)C1C` (configuration not stated) gave Six1-Eya2 blk 3, gsp antagonist 11%, gsp agonist 24%, D2 agonist 0.3, CtBP-E1A inh -12 and D2 PAM -21.
CCC(=O)Nc1cccc(-c2nnc(-c3cccc(NC(=O)CC)c3)o2)c1 was read as Six1-Eya2 blk -20, gsp antagonist -26%, gsp agonist -22%, D2 agonist 0.9, CtBP-E1A inh 15 and D2 PAM -7.
Screening Fc1ccc(CNc2nc(-c3ccco3)cc(C(F)(F)F)n2)cc1 returned Six1-Eya2 blk 29, gsp antagonist 19%, gsp agonist -5%, D2 agonist -4.3, CtBP-E1A inh 21 and D2 PAM -8.
`Cn1c(CCC(=O)OCC(=O)NCc2ccccc2Cl)nc(=O)c2ccccc21` gave Six1-Eya2 blk 4, gsp antagonist 1%, gsp agonist 22%, D2 agonist -0.4, CtBP-E1A inh 6 and D2 PAM 0.
For Cc1c(Cl)cccc1NC(=O)Cn1c(-c2ccc(F)cc2)noc1=O the results were Six1-Eya2 blk 22, gsp antagonist -8%, gsp agonist inconclusive, D2 agonist 6.2, CtBP-E1A inh 5 and D2 PAM -4.
`Cc1cccc(CC(C)NC(=O)CCc2nnc(CCCCc3ccccc3)o2)n1` (configuration not stated) gave Six1-Eya2 blk 6, gsp antagonist -2%, gsp agonist 0%, D2 agonist 1.4, CtBP-E1A inh 9 and D2 PAM 1.
`CCc1ccc(OC2(C)CCN(Cc3ccc(SC)cc3)C2)cc1` (configuration not stated) gave Six1-Eya2 blk -4, D2 agonist 3.1, CtBP-E1A inh 6 and D2 PAM -18.
`CN(Cc1cccc(Cl)c1Cl)C(=O)c1ccccc1SCC(=O)N1CCCC1` gave Six1-Eya2 blk -3, gsp antagonist -11%, gsp agonist -2%[15.4 µM], D2 agonist 2.8, CtBP-E1A inh 5 and D2 PAM -2.
`CCn1cc(/C=C(\NC(=O)c2ccccc2F)C(=O)N2CCCC2)c2ccccc21` gave Six1-Eya2 blk -5, gsp antagonist -19%, gsp agonist inconclusive, D2 agonist -1.5, CtBP-E1A inh -6 and D2 PAM -12.
Screening CC1C(=O)C(C)C(c2ccccc2F)NC1c1ccccc1F (configuration not stated) returned Six1-Eya2 blk -1, gsp antagonist -10%, gsp agonist inconclusive, D2 agonist -3.4 and D2 PAM -4.
`O=C(CN1C2CCCC1CC(NC(=O)C1CCCCC1)C2)NCc1ccc(F)cc1` (configuration not stated) gave Six1-Eya2 blk -3, gsp antagonist -4%, gsp agonist 20%, D2 agonist -5.6 and D2 PAM -14.

Hits appear at their usual frequency, and some 1.4% of all compounds hit somewhere here.
